Screening data (PubChem)
ID4 SMM: ID4 (human) binding. calls only. 31,000 compounds, 1.2% hits. P47928. small molecule microarray, Flag-ID4 binding, fluorescence F/B;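 active = spot signal over background at p below 0.07 in all four prints; compounds were printed on slides so no solution concentration is given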;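 note: a binder raises fluorescence above local background on the spot; about 2 pmol printed per array spot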
Target sequence (P47928 whole entry, looked up): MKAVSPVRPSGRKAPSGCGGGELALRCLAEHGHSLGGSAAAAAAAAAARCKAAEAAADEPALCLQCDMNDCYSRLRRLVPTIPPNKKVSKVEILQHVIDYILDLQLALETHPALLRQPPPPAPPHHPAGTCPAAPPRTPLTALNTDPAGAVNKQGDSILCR
Calls only; i = inactive.

SMILES | ID4 SMM
C[C@H](CO)N1C[C@H](C)[C@H](CN(C)Cc2ccncc2)Oc2ncc(-c3cncnc3)cc2C1=O | i
O=C(N[C@@H]1C=C[C@@H](CC(=O)N2CCC(Cc3ccccc3)CC2)O[C@H]1CO)c1cnccn1 | i
COc1ccccc1NC(=O)Cn1nnc2sc3c(c2c1=O)CCC(C)C3 (centres undefined) | i
COC(=O)C[C@H]1CC[C@@H](NS(=O)(=O)c2ccc(OC)cc2)[C@@H](CO)O1 | i
C/C=C/c1cnc2c(c1)C(=O)N([C@H](C)CO)C[C@@H](C)[C@H](CN(C)C(=O)C1CC1)O2 | i
CC(=O)N(C)C[C@@H]1Oc2ncc(-c3ccc(F)cc3)cc2C(=O)N([C@@H](C)CO)C[C@@H]1C | i
Cc1cc([N+](=O)[O-])nn1CC(=O)Nc1cc(Cl)cc(Cl)c1 | i
C[C@@H]1CN([C@H](C)CO)C(=O)c2c(c3ccccc3n2C)-c2ccccc2CO[C@@H]1CN(C)Cc1cccc(C(=O)O)c1 | i
C[C@H]1CN([C@@H](C)CO)C(=O)c2cc(-c3cccc(C(=O)N(C)C)c3)cnc2O[C@@H]1CN(C)C | i
Cc1ccc(S(=O)(=O)N2C(=O)CCC2C(=O)Nc2cccc(Br)c2)cc1 (centres undefined) | i
COc1ccc(OC)c(NC(=O)CNC(=O)c2ccc(Cl)cc2)c1 | i
COCC(=O)N(C)C[C@H]1Oc2cc(-c3ccc(OC)cc3)ccc2S(=O)(=O)N([C@@H](C)CO)C[C@@H]1C | i
Cc1ccccc1OCC(=O)Nc1ccc(O)cc1C(=O)O | i
CC(=O)NCCOc1nc(N2CCCCC2)nc(N2CCOCC2)n1 | i
COc1ccc(OC)c(NC(=O)CSc2nc3sc4c(c3c(=O)n2-c2ccccc2)CCCC4)c1 | i
C[C@H](CO)N1C[C@H](C)[C@@H](CN(C)C)Oc2cc(C#CCN(C)C)ccc2S1(=O)=O | i
C[C@H]1CN([C@@H](C)CO)C(=O)c2cc(-c3cccc(F)c3)cnc2O[C@@H]1CN(C)CC1CCOCC1 | i
O=c1[nH]c2ccc(S(=O)(=O)NCc3ccco3)cc2[nH]1 | i
COc1ccc(NC(=O)COc2ccc([N+](=O)[O-])cc2)cc1OC | i
Cc1ccc(NC(=O)CSc2nc(N)c(-c3ccccc3)c(=O)[nH]2)cc1Cl | i

Next section (two carried over from the part before).
SMILES | ID4 SMM
COc1ccc(NC(=O)COc2ccc([N+](=O)[O-])cc2)cc1OC | i
Cc1ccc(NC(=O)CSc2nc(N)c(-c3ccccc3)c(=O)[nH]2)cc1Cl | i
C[C@@H]1CN([C@@H](C)CO)C(=O)c2cc(NC(=O)C3CCCCC3)ccc2O[C@H]1CN(C)C | i
CC(=O)N(C)C[C@@H]1Oc2ncc(/C=C/c3ccccc3)cc2C(=O)N([C@H](C)CO)C[C@@H]1C | i
CCC(=O)N(C)C[C@H]1Oc2cc(C#CC3(O)CCCC3)ccc2S(=O)(=O)N([C@H](C)CO)C[C@@H]1C | i
O=C(Cn1c(=O)oc2ccccc21)Nc1ccc(S(=O)(=O)N2CCOCC2)cc1 | i
Cc1cc(C)cc(-c2nc3cc(NC(=O)COc4ccccc4[N+](=O)[O-])ccc3o2)c1 | i
CCn1c(SCC(=O)Nc2cc(Cl)c(Cl)cc2Cl)nnc1-c1ccccc1Cl | i
C[C@H](CO)N1C[C@H](C)[C@H](CN(C)C(=O)[C@H]2CCCN2C)OCc2ccccc2-c2ccccc2C1=O | i
O=C(NCCCN1CCOCC1)C1CC(c2ccc(Cl)c(Cl)c2)=NO1 (centres undefined) | i
CC(C)OC(=O)CSc1nc2c(cc1C#N)CCCCC2 | i
CS(=O)(=O)N(CC(=O)Nc1ccc(F)c(Cl)c1)c1ccc2c(c1)OCCO2 | i
COC(=O)c1cc(OC)c(OC)cc1NC(=O)C(C)Oc1ccccc1C (centres undefined) | i
COc1ccc(NC(=O)COc2ccc(C(C)C)cc2Br)c([N+](=O)[O-])c1 | i
CC(C)c1cn(CC[C@H]2CC[C@H](NC(=O)C3CCC3)[C@H](CO)O2)nn1 | i
COc1c(S(=O)(=O)N2CCCN(S(=O)(=O)c3ccc(Cl)c(Cl)c3OC)CC2)ccc(Cl)c1Cl | i
COc1ccc(-c2cnc3c(c2)C(=O)N([C@@H](C)CO)C[C@@H](C)[C@H](CN(C)Cc2ccccn2)O3)cc1 | i
C[C@@H](NC(=O)C[C@@H]1C=C[C@@H](NC(=O)C2CCC2)[C@H](CO)O1)c1ccccc1 | i
Cc1ccc(NC(=O)C2CC(Cl)=CCC2C(=O)O)c(Br)c1 (centres undefined) | i
C[C@@H]1CN([C@H](C)CO)C(=O)c2cc(/C=C/c3ccccc3)cnc2O[C@@H]1CN(C)C(=O)c1cnccn1 | i
C[C@@H]1CN([C@@H](C)CO)C(=O)CCCn2cc(nn2)CO[C@H]1CN(C)Cc1ccccc1C(F)(F)F | i
c1ccc(-c2nn3c(Cn4cnc5ccccc54)nnc3s2)cc1 | i
CCCN(C)C[C@H]1Oc2cc(C#Cc3cccc(F)c3)ccc2S(=O)(=O)N([C@H](C)CO)C[C@@H]1C | i
COC(=O)c1ccc(NC(=O)CN(c2ccc(Br)c(C)c2)S(C)(=O)=O)cc1 | i
C[C@@H]1CN([C@@H](C)CO)C(=O)c2cc(/C=C/c3ccccc3)cnc2O[C@@H]1CN(C)Cc1ccncc1 | i
NC(=O)CSc1nc2sc3c(c2c(=O)n1Cc1ccccc1)CCCC3 | i
Cc1ccc(C)c(NC(=O)CSc2nnc(-c3ccncc3)n2-c2ccc(F)cc2)c1 | i
CCCN(C)C[C@@H]1Oc2ncc(C#Cc3ccc(OC)cc3)cc2C(=O)N([C@@H](C)CO)C[C@@H]1C | i
CNC[C@@H]1Oc2cc(Br)ccc2S(=O)(=O)N([C@H](C)CO)C[C@H]1C | i
CCSc1n[nH]c(-c2c(Cl)c(CC)nn2C)n1 | i
Cc1cc(C)cc(NC(=O)CSc2nnc(-c3ccncc3)n2C)c1 | i
Cc1ccc(NC(=O)CSc2nc(-c3ccccc3)c(-c3ccccc3)[nH]2)c(C)c1 | i
O=C(Cn1c2ccccc2n2nc(-c3ccccc3)nc12)c1cccs1 | i
C[C@@H]1CN([C@@H](C)CO)S(=O)(=O)c2ccc(C#CCC3CCCC3)cc2O[C@H]1CN(C)C | i
COc1ccc(S(=O)(=O)N(C)CC(=O)Nc2ccccc2SC)cc1C | i
CC(Oc1ccc(F)cc1)C(=O)Nc1sc2c(c1C(N)=O)CCCC2 (centres undefined) | i
C[C@@H]1CN([C@@H](C)CO)C(=O)c2cc(C#CC3CCCCC3)cnc2O[C@@H]1CN(C)C(=O)Cc1ccccn1 | i
CN1C(=O)c2ccc(NC(=O)Cn3c(=O)oc4ccccc43)cc2C1=O | i
O=C(NCc1cccnc1)c1cccnc1-c1nc2ccccc2s1 | i
Cc1ccc(-c2cnc3c(c2)C(=O)N([C@@H](C)CO)C[C@H](C)[C@@H](CN(C)CC2CCOCC2)O3)cc1 | i
NC(=O)CN1C(=O)C(O)(CC(=O)c2cccnc2)c2ccccc21 (centres undefined) | i
O=C(CN1CCN(C2CCCC2)CC1)Nc1ccc([N+](=O)[O-])cc1C(=O)Nc1ccccc1F | i

An excerpt of these results, field by field:
> c1ccc(-c2nn3c(Cn4cnc5ccccc54)nnc3s2)cc1
  ID4 SMM: i
> CCCN(C)C[C@H]1Oc2cc(C#Cc3cccc(F)c3)ccc2S(=O)(=O)N([C@H](C)CO)C[C@@H]1C
  ID4 SMM: i
> COC(=O)c1ccc(NC(=O)CN(c2ccc(Br)c(C)c2)S(C)(=O)=O)cc1
  ID4 SMM: i
> C[C@@H]1CN([C@@H](C)CO)C(=O)c2cc(/C=C/c3ccccc3)cnc2O[C@@H]1CN(C)Cc1ccncc1
  ID4 SMM: i

Molecules above containing bromine (five):
SMILES | ID4 SMM
Cc1ccc(S(=O)(=O)N2C(=O)CCC2C(=O)Nc2cccc(Br)c2)cc1 (centres undefined) | i
COc1ccc(NC(=O)COc2ccc(C(C)C)cc2Br)c([N+](=O)[O-])c1 | i
Cc1ccc(NC(=O)C2CC(Cl)=CCC2C(=O)O)c(Br)c1 (centres undefined) | i
COC(=O)c1ccc(NC(=O)CN(c2ccc(Br)c(C)c2)S(C)(=O)=O)cc1 | i
CNC[C@@H]1Oc2cc(Br)ccc2S(=O)(=O)N([C@H](C)CO)C[C@H]1C | i

Continued:
SMILES | ID4 SMM
COc1cccc(N(CC(=O)Nc2cccc(Cl)c2)S(C)(=O)=O)c1 | i
CNC[C@H]1Oc2cc(C#Cc3ccc(OC)cc3)ccc2S(=O)(=O)N([C@H](C)CO)C[C@@H]1C | i
CCOc1ccccc1NC(=O)CN1C(=O)c2cccc3cccc1c23 | i
CCOC(=O)c1c(NC(=O)CSc2nc(C)cc(C(F)(F)F)c2C#N)sc2c1CCCC2 | i
Cc1cc(C)c(NC(=O)CSc2nnc(-c3cccnc3)s2)c([N+](=O)[O-])c1 | i
COc1ccc(Cn2c(=O)c3[nH]cnc3n(-c3cc(S(C)=O)ccc3C)c2=O)cc1 (centres undefined) | i
FC(F)(F)c1ccccc1-n1ccnc1 | i
CCSC1=C(C#N)C(=O)NC(C(C)C)S1 (centres undefined) | i
CC(=O)N1N=C(c2ccc(C(C)(C)C)cc2)OC1(C)C | i
O=C(Nc1ccc(S(=O)(=O)Nc2ccccn2)cc1)Nc1ccc(Cl)c(Cl)c1 | i
S=c1nn[nH]n1CCc1ccc(Cl)cc1 | i
O=C(CCN1C(=O)c2ccccc2S1(=O)=O)Nc1ccc2c(c1)OCCO2 | i
C[C@@H]1CN([C@@H](C)CO)C(=O)c2cc(-c3cncnc3)cnc2O[C@@H]1CN(C)C(=O)CN1CCOCC1 | i
COc1ccc(NC(=O)COc2ccccc2Cl)cc1NC(=O)c1ccco1 | i
COC(=O)c1cc(OC)c(OC)cc1NC(=O)Cc1ccccc1[N+](=O)[O-] | i
CCS(=O)(=O)N[C@H]1C=C[C@@H](CC(=O)Nc2ccc(-c3ccccc3)cc2)O[C@H]1CO | i
CCCC#Cc1cnc2c(c1)C(=O)N([C@H](C)CO)C[C@H](C)[C@@H](CN(C)Cc1cccnc1)O2 | i
COc1ccc(NC(=O)CSc2ncnc3sc(-c4ccccc4)cc23)c([N+](=O)[O-])c1 | i
COc1ccc(-c2cnc3c(c2)C(=O)N([C@@H](C)CO)C[C@@H](C)[C@@H](CN(C)Cc2cccnc2)O3)cc1 | i
CCCCCCCCCCCCC/C=C/[C@@H](O)[C@H](CO)NC(C)=O | i
C/C=C/c1ccc2c(c1)O[C@@H](CN(C)C)[C@@H](C)CN([C@H](C)CO)S2(=O)=O | i
C[C@@H]1CN([C@H](C)CO)C(=O)c2ccccc2-c2ccccc2CO[C@H]1CN(C)C(=O)CCN(C)C | i
C/C=C/c1ccc2c(c1)O[C@H](CN(C)C(=O)c1ccccn1)[C@H](C)CN([C@@H](C)CO)S2(=O)=O | i
CC(C)CC#Cc1cnc2c(c1)C(=O)N([C@H](C)CO)C[C@H](C)[C@H](CN(C)Cc1ccccc1C(=O)O)O2 | i
COC(=O)c1ccc(C(=O)OC)c(NC(=O)COc2ccccc2OC)c1 | i
COC(=O)COc1cccc(NC(=O)c2ccc(-c3ccccc3)cc2)c1 | i
CCN(CC)C(=O)c1ccc(Nc2nnc(-c3ccc(C)c(S(N)(=O)=O)c3)c3ccccc23)cc1 | i
C[C@H](CO)N1C[C@H](C)[C@H](CN(C)Cc2ccccc2)Oc2c(NC(=O)C3CC3)cccc2C1=O | i
COCC#Cc1cnc2c(c1)C(=O)N([C@H](C)CO)C[C@@H](C)[C@H](CN(C)Cc1ccccc1)O2 | i
COc1ccccc1-c1nnc(SCC(=O)Nc2ccc(Cl)cc2Cl)n1-c1ccccc1 | i
Cc1[nH]c2ccccc2c1C(=O)CSc1ccc2ccccc2n1 | i
COc1cccc(-c2cnc3c(c2)C(=O)N([C@H](C)CO)C[C@@H](C)[C@@H](CN(C)Cc2ccncc2)O3)c1 | i
O=C(Nc1ccccc1)OCC(CN1CCCCC1)OC(=O)Nc1ccccc1 (centres undefined) | i
CC(C)CC#Cc1ccc2c(c1)O[C@@H](CN(C)C)[C@H](C)CN([C@H](C)CO)S2(=O)=O | i
CN(C)C(=O)C(CCN1CCC(O)(c2ccc(Cl)cc2)CC1)(c1ccccc1)c1ccccc1 | i
COCCOC(=O)N1C(=O)[C@@]2(c3ccccc31)[C@H](c1ccccc1OCCO)N1[C@H](c3ccccc3)[C@H](c3ccccc3)OC(=O)[C@H]1[C@@H]2C(=O)N1CCCCCCC1 | i
Cc1cc(NC(=O)CCSc2nc(-c3ccco3)cc(C(F)(F)F)n2)n(-c2ccccc2)n1 | i
CCCc1cc(=O)n2[nH]c(NCc3cccc([N+](=O)[O-])c3)nc2n1 | i
O=C(CSc1nc(-c2ccccc2)cc(=O)[nH]1)Nc1ccccc1 | i
CC(C)NS(=O)(=O)c1ccc(OCC(=O)N2CCOCC2)cc1 | i
O=C(CCN1CCCCC1)N[C@H]1CC[C@@H](CC(=O)N2CCC(Cc3ccccc3)CC2)O[C@@H]1CO | i
COc1ccc(C)cc1NC(=O)CN(c1ccc(I)cc1)S(C)(=O)=O | i
C/C=C(/C)C(=O)O[C@H]1C=C(C)C[C@H](OC(=O)c2ccc(O)cc2)C2[C@](O)(C(C)C)CC[C@@]21C (some centres undefined) | i
CN(C)CCCCCCNC(=O)[C@@H]1C[C@@H]2C(=O)NCC(=O)N2[C@@H]1c1cccc(OCCO)c1 | i
Cc1ccc(NC(=O)CSc2nncc3ccccc23)cc1 | i
O=C1c2oc3ccccc3c(=O)c2C(c2cccc(Oc3ccccc3)c2)N1CCCO (centres undefined) | i
CC(C)(C)NS(=O)(=O)c1ccc(NC(=O)CSc2nc3ccccc3s2)cc1 | i
Cc1ccc(NC(=O)CN(c2ccc(F)c(Cl)c2)S(C)(=O)=O)c(C)c1 | i
Cc1ccc(-n2nc3ccc(NC(=O)COc4cccc(C)c4)cc3n2)cc1 | i
CC(NS(=O)(=O)c1ccc(F)cc1)C(=O)Nc1ccc(I)cc1 (centres undefined) | i

This is a subset; rates above refer to the full screens.
